Screens deposited in PubChem BioAssay by National Center for Advancing Translational Sciences (NCATS).
TRPML1 agonist: qHTS for Agonists of the Human Mucolipin Transient Receptor Potential 1 (TRPML1). activation, % (concentration not given with the values). Mucolipin-1 (Homo sapiens), Q9GZU1. 0.12% of 410,000 active. TRPML1-expressing cells, Ca2+ dye fluorescence, FDSS; host cell line not named in the record; reference of the full effect not given here; in the data active = activation above about 50%; inconclusive = about 30% to 50%; inactive = below about 30%; further: 0% is about no effect; the text of the record puts the active cut at 80%
Target sequence (Q9GZU1 whole entry, looked up): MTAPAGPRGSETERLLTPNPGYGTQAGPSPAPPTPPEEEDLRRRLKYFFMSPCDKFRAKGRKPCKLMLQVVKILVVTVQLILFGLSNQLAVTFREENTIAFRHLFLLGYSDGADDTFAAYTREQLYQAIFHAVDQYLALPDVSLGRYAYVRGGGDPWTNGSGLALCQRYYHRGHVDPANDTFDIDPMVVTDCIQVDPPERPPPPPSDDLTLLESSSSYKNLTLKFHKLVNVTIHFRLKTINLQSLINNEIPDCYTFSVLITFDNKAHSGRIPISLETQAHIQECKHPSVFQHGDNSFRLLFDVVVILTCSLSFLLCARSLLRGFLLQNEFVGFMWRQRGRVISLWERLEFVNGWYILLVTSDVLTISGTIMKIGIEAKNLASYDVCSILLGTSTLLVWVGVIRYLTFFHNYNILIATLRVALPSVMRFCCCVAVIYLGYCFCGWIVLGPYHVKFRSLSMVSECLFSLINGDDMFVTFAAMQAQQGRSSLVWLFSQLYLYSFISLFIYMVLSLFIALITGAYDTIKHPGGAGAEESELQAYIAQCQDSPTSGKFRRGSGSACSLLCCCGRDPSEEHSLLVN
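Calcium fluorescence on an FDSS kinetic reader gave the read-out. Tet-induced TRPML1-DL cells were plated overnight, dye-loaded (Ca8 with quencher, 45-90 min, room temperature, dark), then read 110 s after compound addition, and again 110 s after 4uM final 54-4 (EC80).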
* = called active by the depositor; & = joins results of further samples. The list is partial. The share of hits here may be higher or lower than overall.

SMILES	TRPML1 agonist
Cc1[nH]c2ccccc2c1/C=C/c1cnc2ccccc2n1	3.4
CN(C)CCCNc1nccc(N2CCN(C)CC2)n1	-0.3
COc1ccc(CN2CC[C@H]3C=CC[C@@H](C(=O)N4CCN(c5ccccc5)CC4)[C@H]3C2=O)cc1OC	-0.6
CC(C)(C(=O)NO)c1ccccc1	-0.1
O=C(Nc1nccs1)[C@@H]1CC=C[C@@H]2CCN(C3CCCCC3)C(=O)[C@@H]21	-0.7
C=CCNC(=O)c1ccc2nc(-c3ccco3)c(-c3ccco3)nc2c1	-0.3
O=[S+]([O-])([O-])c1ccc2c(c1)cc([S+](=O)([O-])[O-])c1nn(-c3ccc(/C=C/c4ccc(-n5nc6c([S+](=O)([O-])[O-])cc7cc([S+](=O)([O-])[O-])ccc7c6n5)cc4[S+](=O)([O-])[O-])c([S+](=O)([O-])[O-])c3)nc12	-0.5
Cc1ccnc2ccc3ccccc3c12	-0.5
Cc1cccc(NC(=O)COc2ccccc2C(=O)Nc2ccccc2)c1	-0.2
Cc1cc[n+](CCC2CCCCC2)cc1	-0.3
Cc1cc[n+](CC(=O)c2ccc(F)cc2)cc1	-0.4
COc1cc(OC)c(/C=C/c2cc[n+](C)c3ccccc23)c(OC)c1	-0.2
CN(C)c1ccc(/C=C/c2ccccn2)cc1	3.8
Cc1ccnc2ncccc12	-0.3
CN(C)c1ccc(/C=[N+]2\C(=O)CC(=O)NC2=O)cc1	-0.2
COc1ccccc1NC(C)C(=O)c1c[nH]c2ccccc12 (stereo not given)	-0.6
CCCCOc1ccc(CC(=O)NOC)cc1	-0.9
O=c1c2ccccc2oc2ccc(-c3ccoc3)cc12	-0.9
Cc1cnc(C)cn1	0.1
Cc1ccc2nc(CS)[nH]c2c1	-0.7
c1coc(CNc2nc[n+]3c4c2ncn4CC3)c1	0.1
CCCN1CNc2c(c(=O)[nH]c(=S)n2CCc2cccs2)C1	-0.3
N#CCCn1cc(CNCc2cccnc2)c(-c2ccccc2)n1	-0.3
O=S(=O)(c1cccc(C(F)(F)F)c1)N1CCN(c2nc(-c3cccs3)nc3ccccc23)CC1	-0.1

Laid out differently: 2 of the compounds above.
Molecule,TRPML1 agonist
c1coc(CNc2nc[n+]3c4c2ncn4CC3)c1,0.1
CCCN1CNc2c(c(=O)[nH]c(=S)n2CCc2cccs2)C1,-0.3

Going on with the list.
SMILES	TRPML1 agonist
O=S(=O)(/N=C(/Sc1ccc(Cl)cc1)c1ccccc1)c1ccccc1	-0.7
C=C1NN(C(C)C(=O)O)C(=O)N1c1ccc(OCc2ccccc2)cc1 (stereo not given)	-0.4
O=C(Nc1ccc(Cl)cn1)c1cnn2c1NC(=C1CC1)C=C2C(F)F	-0.8
O=C(C[n+]1ccccc1Cl)c1ccc(O)c(O)c1	-0.3
N#Cc1ccc(/C=C2/C=Cc3ccccc32)cc1	-0.5
OC(C[n+]1ccccc1Cl)c1ccccc1 (stereo not given)	-0.3
COc1ccccc1-c1nn2c(-c3cc(C)[nH]n3)nnc2s1	-1.2
O=Cc1ccc2[nH]ccc2c1	-0.4
COc1ccc(OC)c(NC(=O)c2nc(S(=O)(=O)Cc3ccccc3F)ncc2Cl)c1	-0.7
COc1cccc(/C=c2/[nH]c(=O)/c(=C\c3cccc(OC)c3OC)[nH]c2=O)c1OC	-0.6
Cc1cc(Br)ccc1NC(=O)COC(=O)c1ccccc1OCC(N)=O	-0.8
CCCN1C(=O)c2ccccc2NC1c1ccc(OC)c(COc2ccc([N+](=O)[O-])c(C)c2)c1 (stereo not given)	-0.7
CCCNC(=O)Cn1c(SCc2ccccc2C)nc2ccncc21	-0.8
CCN1C(=O)[C@H]2[C@H]3[C@H](O)[C@H](O)CC(=O)[C@@H]3CC[C@H]2C1=O	-0.2
O=C(Nc1cc(Cl)ccc1Cl)c1cc([N+](=O)[O-])cc(Br)c1O	-1.3
C1=Cc2ccccc2/C1=C\c1ccc(/C=C2\C=Cc3ccccc32)cc1	0.1
Cc1cnnc2ccccc12	-0.4
OB(O)c1ccc(Br)cc1	-0.9
O=C(NCc1cccnc1)[C@@H]1CC=C[C@@H]2CCN(C3CCCCC3)C(=O)[C@@H]21	-1.2
CCCN1CNc2c(c(=O)[nH]c(=S)n2CCc2cccc(OC)c2)C1	-0.4
NC(=O)c1nsc(C(=O)N(CC(=O)NC2CCCCC2)Cc2ccc3c(c2)OCO3)c1N	-0.9
Cc1ccc2c(C(=O)CNC3=NCCS3)c(C)[nH]c2c1	-0.6
Nc1ccc2c(c1)C(=O)N(c1ccc3ccccc3c1)C2=O	0.2
Cc1[nH]c2ccccc2c1/C=C/c1nccc2ccccc12	20

An excerpt from above in order of molar mass, lowest first:
SMILES	TRPML1 agonist
Cc1cnnc2ccccc12	-0.4
Cc1[nH]c2ccccc2c1/C=C/c1cnc2ccccc2n1	3.4
Nc1ccc2c(c1)C(=O)N(c1ccc3ccccc3c1)C2=O	0.2

(continued)
SMILES	TRPML1 agonist
Brc1cccc[n+]1Cc1ccccc1C[n+]1ccccc1Br	-0.2
CCc1nnc(NC(=O)[C@@H]2CCCN2C(=O)c2cccs2)s1	-0.8
COc1ccc(/C=C/c2ccccn2)cc1	0.1
O=C(C[n+]1cc(Br)cc(Br)c1)c1ccc2ccccc2c1	0.2
CCC[N+](C)(C)c1ccc(/C=C/c2ccnc3ccccc23)cc1	-0.3
O=C1c2ccccc2NC(c2ccccc2OCc2ccccc2)N1Cc1ccco1 (stereo not given)	-0.5
COc1cc2c(cc1OC)C(C(C(=O)N(CCc1ccc(OC)c(OC)c1OC)CCc1ccc(OC)c(OC)c1OC)c1ccccc1)=NCC2 (stereo not given)	-0.9
Nc1ccc(C(Cc2ccnc3ccccc23)Cc2ccnc3ccccc23)cc1	-1.0
Nc1ccccc1N	-0.4
Cc1ccc(S(=O)(=O)N2CCN(c3nc(-c4cccs4)nc4ccccc34)CC2)cc1	-0.2&0.0&-0.6
CC(C)c1nnc(NC(=O)C2CCN(C(=O)C(C)(C)C)CC2)s1	0.1
NCCCCCCCCCCNS(=O)(=O)c1cccc2c(Cl)cccc12	1.7

Look-ups from the results shown:
In TRPML1 agonist, `Nc1ccccc1N` has -0.4
In TRPML1 agonist, `O=C1c2ccccc2NC(c2ccccc2OCc2ccccc2)N1Cc1ccco1` (stereo not given) has -0.5
In TRPML1 agonist, `CC(C)c1nnc(NC(=O)C2CCN(C(=O)C(C)(C)C)CC2)s1` has 0.1
In TRPML1 agonist, `Cc1ccc(S(=O)(=O)N2CCN(c3nc(-c4cccs4)nc4ccccc34)CC2)cc1` has -0.2&0.0&-0.6

Some of the entries so far, as labelled records.
SMILES: CC(C)c1nnc(NC(=O)C2CCN(C(=O)C(C)(C)C)CC2)s1
  TRPML1 agonist = 0.1

SMILES: NCCCCCCCCCCNS(=O)(=O)c1cccc2c(Cl)cccc12
  TRPML1 agonist = 1.7

The list continues.
SMILES	TRPML1 agonist
Cc1ccc2[nH]c(=O)c(CN(CCO)Cc3nnnn3Cc3ccccc3)cc2c1	1.0
C=CCn1c(SCC(=O)NCc2ccco2)nnc1-c1cccc(N(C)C)c1	-1.4
COc1ccccc1CCNc1ncnc2nc[nH]c12	-0.6
S=C(NCCCc1cnc[nH]1)NCCCN(CCc1ccccc1)c1ccc(Br)cn1	0.1&0.5
O=C1CCC[C@@H]2C[C@@]3(C[C@@H]4CCN1[C@H]24)Nc1ccccc1NC3=NC1CCCCC1	-0.5
Cc1ccccc1OCC(=O)NCC(C)NC(=O)COc1ccccc1C (stereo not given)	-0.7
Cc1ccc(NC(=O)c2nc(S(=O)(=O)Cc3ccccc3F)ncc2Cl)cc1	1.6
Cn1nnc2c(N3CCN(Cc4ccccc4)CC3)ncnc21	-0.6
Cc1ccc(SC[C@H](Cc2ccccc2)N2CC[C@@H](C(C)(C)C)CCC2=O)cc1	-0.7
COc1cccc2c1C(=O)/C(=C\c1ccc(N(C)C)cc1)C2	62*
Cc1cnccn1	0.0
CCCN1CNc2c(c(=O)[nH]c(=S)n2CCc2ccc(Cl)cc2Cl)C1	-0.5
COc1cc2c(NC3CCN(C)CC3)nc(N3CCCN(C)CC3)nc2cc1OCCOCCN1CCCC1	-0.4
COC(=O)[C@H](CC(C)C)NS(=O)(=O)NC(=O)OC(C)(C)C	-0.4
NC(CS)C(=O)O (stereo not given)	0.2
O=S(=O)(c1ccc(Br)cc1)N1CCOCC1	-0.1
COc1ccccc1/C=C/c1ccc2ccccc2n1	-0.9
N#Cc1ccc(S(=O)(=O)N2CCN(c3nc(-c4ccccc4)nc4ccccc34)CC2)cc1	0.1
COc1cc2c(NC3CCN(C)CC3)nc(N3CCCN(C)CC3)nc2cc1OCCCCN	-0.2
CN1CCN2c3ccccc3CC3(C(=O)OC(C)(C)OC3=O)C2C1 (stereo not given)	-0.4
CCNc1nc(NCc2ccco2)c2ccccc2n1	72*
O=C(C[n+]1cccc2cccc(O)c21)c1ccc(F)cc1	16
CC(=O)Nc1ccc(NC(=O)COC(=O)c2ccccc2OCc2cccc(Br)c2)cc1	0.0
O=[N+]([O-])c1cccc2[nH]cnc12	-0.3
O=[N+]([O-])c1ccc(/C=C/c2ccc3cccnc3c2)cc1	-0.5
Cc1cc(N(C)C)ccc1/C=C/c1ccnc2ccccc12	17
O=C(COc1ccccc1C(=O)Nc1ccccc1)Nc1ccccc1-c1ccccc1	-0.1
O=C(CNC(=O)C1CCCCC1)OCC(=O)c1ccccc1	-0.1
CCCCN1CC[C@H]2C=CC[C@@H](C(=O)NCc3cccnc3)[C@H]2C1=O	-0.1
Cc1nc(C#N)nc(Oc2ccccc2)c1Cl	-1.0
C(=Nc1cnc2ccccc2c1)c1ccncc1	-0.6
Cc1sc2ccccc2[n+]1CCC[n+]1c(C)sc2ccccc21	-0.3
CN(C)c1ccc(/C=C2\C=Cc3ccccc32)c(F)c1	0.1
COc1cccc(CNC(=O)COC(=O)c2ccc(S(C)(=O)=O)c([N+](=O)[O-])c2)c1	-0.6
CCCN1CNc2c(c(=O)[nH]c(=S)n2CCc2ccc(Cl)c(Cl)c2)C1	0.3
O=S(=O)(c1ccc(Cl)cc1)N1CCN(c2nc(Nc3cc(Cl)ccc3O)nc3ccccc23)CC1	-0.2&-0.3
O=C(C[n+]1ccncc1Cl)c1ccc(F)cc1	-0.4
Cc1ccccc1OCC(=O)NCC(=O)OC(c1ccccc1)c1ccccc1	-0.7
CCCCCCC[n+]1ccc(/C=C/c2c(C)[nH]c3ccccc23)cc1	57*
Cc1ccc(Nc2nc(Nc3ccc(Cl)cc3)nc(N3CCOCC3)n2)cc1	-0.3
CC(C)C[C@@H](CN=[N+]=[N-])N1CCN(CCc2ccccc2)CCC1=O	-0.4
Cc1cc[n+](C)c2ccccc12	-0.7
COc1ccccc1/C=c1/[nH]c(=O)/c(=C\c2ccccc2OC)[nH]c1=O	0.3
OCC1OC(n2cnc3c(NO)ncnc32)C(O)C1O (stereo not given)	-0.4
CCc1c(C)c2ccccc2[nH]c1=O	-1.0
Cc1ccc2nc(-c3ccc(C)o3)c(Nc3ccc(F)cc3)n2c1	-0.8
CC(=O)Nc1ccc(/C=C2\C=C(C(O)c3ccc(NC(C)=O)cc3)c3ccccc32)cc1 (stereo not given)	-0.1
Brc1nc2ncnc(NCc3ccco3)c2[nH]1	-0.2
CNC(=O)c1ccc2nc(-c3ccco3)c(-c3ccco3)nc2c1	0.0
O=c1[nH]/c(=C/c2ccc3c(c2)OCO3)c(=O)[nH]/c1=C\c1ccc2c(c1)OCO2	-0.2
COc1cc2nc(N3CCOCC3)nc(NC3CCN(C)CC3)c2cc1OC	-0.4
Cc1cccc(NC(=O)COC(=O)c2ccccc2OCc2cccc(Br)c2)c1	-0.1
O=C(Nc1ccccc1Sc1ccccc1)c1cnn2c1NC(=C1CC1)C=C2C(F)F	-0.4
Cc1ccc(S(=O)(=O)N2CCN(c3nc(-c4cncn4C)nc4ccccc34)CC2)cc1	-0.1
O=C(O)C1Nc2ccccc2C2C=CCC12 (stereo not given)	0.4
C(=Nc1ccc2ccccc2n1)c1cccnc1	-0.3
CCSC(N)=Nc1ccc(C(F)(F)F)cc1	-0.2
COc1ccc(S(=O)(=O)N2CCN(c3nc(-c4cccs4)nc4ccccc34)CC2)cc1OC	-0.3
CC(C)(C)c1nnc(NC(=O)C2CCN(C(=O)c3ccccc3)CC2)s1	0.1
NCCSc1nc2ccccc2s1	-0.5
Following part:
SMILES	TRPML1 agonist
CCN1C(=NCc2cccc(Cl)c2)N[C@@H](c2cccc(C(F)(F)F)c2)C(C(=O)OC)=C1C	1.7
O=c1[nH]c2c(-c3nc(-c4ccc(Cl)cc4)cs3)c(O)cn2c2ccccc12	-0.3
Cc1cccc(C)c1NC(=O)c1nc(S(=O)(=O)Cc2ccccc2F)ncc1Cl	-0.4
CNC(=O)c1ccc2nc(-c3ccccc3)c(-c3ccccc3)nc2c1	-1.1
Clc1ccc(-c2nn3c(-c4cc(-c5ccccc5)n[nH]4)nnc3s2)cc1	-0.4
CC1CCN2c3cc(Cl)ccc3CC3(C(=O)OC(C)(C)OC3=O)C2C1 (stereo not given)	-0.3
O=c1[nH]cnc2c1[nH]c(=S)n2C1O[C@@H](CO)[C@H](O)[C@@H]1O (stereo not given in full)	-0.3
CC1(C)S[C@@H]2C(C(=O)O)NC(=O)N2C1C(=O)O (stereo not given in full)	0.1
C=CCn1c(SCC(N)=O)nc2ccccc2c1=O	-0.5
CN(C)c1ccc(/C=C2\CCc3cc(N)ccc32)cc1	-1.0
C[n+]1ccnc2cc(Cl)ccc21	4.8
Cc1ccc(C2N=C(Nc3nc4ccccc4o3)NC3=C2C(=O)CC(C)(C)C3)cc1 (stereo not given)	-0.6
COC(=O)C1[C@H]2SC(C)(C)C(C(=O)OC)N2C(=O)N1Cc1ccccc1 (stereo not given in full)	-0.6
COc1cccc(OCc2cc(C3Nc4ccccc4C(=O)N3c3ccccc3)ccc2OC)c1 (stereo not given)	-0.3
COc1ccc(OCCn2c(CCNC(=O)C3CCCCC3)nc3ccccc32)cc1	-0.8
Cc1ccc(S(=O)(=O)N2CCN(c3nc(-n4ccnn4)nc4ccccc34)CC2)cc1	-0.4
O=C(C[n+]1ccccc1Cl)c1ccc2ccccc2c1	-0.7
Oc1cc(O)c(/C=C/c2ccnc3ccccc23)c(O)c1	-0.3
